Source: PubChem (PCMD)
Biofilm kill mix: clotrimazole potentiators killing C. albicans biofilm, primary screen, 4-compound mixtures. actives 0.02% (n = 120,000). C. albicans biofilm persisters + clotrimazole, fluorescence viability; primary screen in compound mixtures of four per well. AID 1242, 2008. inhibition, % at 7.6 µM;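 active = inhibition above 30.3% in the primary screen of four-compound pools, then above 30% when the compound was retested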;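 also: compounds exposed to preformed 24 h biofilms for 48 h; the number belongs to the whole pool; some results filed as inactive read as strong as hits; inactives centre near 12; 0% = biofilm with clotrimazole alone and 100% = kill control; retested singly at about 60 µM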
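Test system: C. albicans CAF4-2 wild-type biofilms; buffer or medium: RPMI/MOPS medium, pH 7.0; schedule: 24 h biofilm formation, then 48 h compound exposure, 37 °C; detection: Alamar Blue fluorescence; measure: percent inhibition of biofilm viability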
An asterisk follows results filed as active. This is a subset. The share of hits here may be higher or lower than overall.

SMILES | Biofilm kill mix
CCCCCCN1C=CC(=C2C(=O)c3ccccc3C2=O)C=C1 | 22
COCC(=O)N1CCCC(C(=O)c2ccc3c4c(cccc24)CC3)C1 (stereo not drawn) | 29
O=C(CSC1CS(=O)(=O)c2cc([N+](=O)[O-])ccc21)NNC(=O)c1ccc(Cl)cc1 (stereo not drawn) | 25
Cc1cc(C)nc(NC(=O)/C=C/c2ccc3c(c2)OCO3)c1 | 8
CCn1cc(SCC(=O)NCC2CCCO2)c2ccccc21 (stereo not drawn) | 16
COc1cc(/C=C/C(=O)Nc2nnc(CC(C)(C)C)s2)cc(OC)c1OC | 7
CC(=O)Nc1ccccc1C(=O)C(=O)Nc1cccc(C(=O)NCC2CCCO2)c1 (stereo not drawn) | 18
CCCCNC(=O)Nc1ccccc1CC | 8
COc1ccc(C2NC(=S)NC3=C2CCCC3=C2SCCS2)cc1 (stereo not drawn) | 10
Cc1cc(C)cc(C(=O)Oc2coc(CSc3nnc(NC(=O)C4CC4)s3)cc2=O)c1 | 21
Cc1ccc2nc(C)c3c(c2c1)SCC3 | 23
CCNC(=O)C/C(C)=N/NC(=O)C1CCCCC1 | 6
Cc1ccc(C(=O)N/N=C\c2ccc([N+](=O)[O-])o2)cn1 | 4
N#C/C(=N\Nc1cccc(C(F)(F)F)c1)C(=O)c1ccsc1 | 18
Cc1ccc2c(c1)C1CN(C)CCC1N2S(=O)(=O)c1ccc(Oc2ccc([N+](=O)[O-])cc2)cc1 (stereo not drawn) | 14
COc1ccc(/C=N/NC(=O)Cc2ccc(Cl)cc2)cc1OC | 21
Cc1c(NC(=O)COC(=O)c2ccc[nH]c2=O)c(=O)n(-c2ccccc2)n1C | 12
O=S(=O)(CCc1ccccc1)/N=C/c1cccs1 | 5
CCC(=O)N1c2ccccc2NC2=C(C(=O)CC(C)(C)C2)C1c1cccnc1 (stereo not drawn) | 2
COc1ccc(S(=O)(=O)N2CCCCCC2)cc1C(=O)OCC(=O)NC(C)(C)C | 0
COc1ccc(-c2cc3ncc(-c4ccccc4)c(N)n3n2)cc1 | 11
CC(=O)c1cc(-c2ccc(F)cc2)n(CCC(=O)Nc2cccc(C)n2)c1C | 16
OC(COc1ccc(CNCCc2ccc(C(F)(F)F)cc2)cc1)CN1CCCCC1 (stereo not drawn) | 22
COc1ccc(/C=N/NC(=O)CCC(=O)Nc2ccccc2)cc1OC | 10
O=C(C1CCN(c2nc3nonc3nc2N2CCCCC2)CC1)N1CCOCC1 | 12
CN1CCN(C(=S)c2ccc(OCC(=O)Nc3cccc(C(F)(F)F)c3)cc2)CC1 | 15
O=C(Cc1ccccc1[N+](=O)[O-])Nc1ccc2c(c1)OCCO2 | 17
COc1ccc(OCC(O)CNC(=O)Nc2ccc(F)cc2)cc1 (stereo not drawn) | 16
CC(C)NC(=O)NC(=O)CSc1nncs1 | -4
COc1ccc2[nH]c(=O)c(CN(CC3CCCO3)C(=S)Nc3cccc(C)c3)cc2c1 (stereo not drawn) | -11
Cc1cc(NC(=O)c2ccc3c(c2)OCCO3)ccc1NC(=O)c1ccco1 | 18
COc1ccc(/C=C/C(=O)Oc2ccc(/C=N/NC(=O)c3ccccc3)cc2)cc1OC | 11
Cn1c(N)c(C(=O)COC(=O)CCCN2C(=O)c3ccccc3C2=O)c(=O)n(C)c1=O | 4
Cc1nc(-c2ccc(Cl)cc2)sc1C1(C)CC(c2ccc(OC(F)(F)F)cc2)=NO1 (stereo not drawn) | 19
CC(C)CC(=O)Nc1ccccc1N1CCCC1 | -1
Nc1cc(=O)[nH]c(SCC(=O)N2N=C(c3ccc4ccccc4c3)CC2c2ccccc2)n1 (stereo not drawn) | 19
CC1(C)NC(=O)N(CC(=O)OCC(=O)Nc2cc(S(=O)(=O)N3CCCCC3)ccc2Cl)C1=O | 12
COc1ccc(-c2csc(NC3=NCCCCC3)n2)cc1 | 6
COc1ccc(C(=O)n2ncc(C#N)c2N)cc1 | 10
CCOc1cc(NS(=O)(=O)c2ccc(OC)cc2)c(OCC)cc1NC(C)=O | 0
CCN1CCN(CCNC(=O)c2ccc(/C=C3/Sc4ccccc4N(Cc4cccc(Cl)c4)C3=O)cc2)CC1 | 2
COc1ccc2[nH]c(C)c(C(=O)CN(C)CC3OCCO3)c2c1 | 13
CC(Cl)C(=O)Nc1cc(C(C)(C)C)nn1-c1ccccc1 (stereo not drawn) | 0
CC1CCCCC1NC(=O)CSc1ccc([N+](=O)[O-])cc1 (stereo not drawn) | 14
Clc1ccc(CNc2ccc(CNc3ncn[nH]3)cc2)c(Cl)c1 | -8
O=C(c1ccccc1)c1ccccc1N1C(=O)C=CC1=O | 11
COCCOC(=O)C1=C(C)NC(=S)NC1c1cccs1 (stereo not drawn) | 16
c1cnc(-c2noc(CN3CCN(C4CCCC4)CC3)n2)cn1 | 19
O=C(O)C1CCCN1C(=O)Nc1ccc(Cl)cc1 (stereo not drawn) | 14
CCOc1cc(C2C3=C(CCCC3=O)OC3=C2C(=O)CCC3)cc([N+](=O)[O-])c1O | 12
CCOC(=O)c1c(NC(=O)CSc2nc3cc(Cl)ccc3s2)sc(C(C)=O)c1C | 0
Cn1c(SCC(=O)NCc2ccccc2)nc2c([nH]c3ccccc32)c1=O | 6
OCCC1CN(Cc2cccn2-c2ncccn2)CCN1Cc1ccccc1 (stereo not drawn) | -5
CCC(C)NC(=O)CN(c1cc(Cl)ccc1OC)S(C)(=O)=O (stereo not drawn) | 22
COc1cc2ccccc2nn1 | 15
COCC(C)NC(=O)Cc1ccc(Cl)cc1 (stereo not drawn) | 4
Cc1ccc(CCSc2ccc(F)cc2)cn1 | 12
CC1CC(C)CN(c2cc(N(C)CCO)c([N+](=O)[O-])c3nonc23)C1 (stereo not drawn) | 12
Cc1nc([N+](=O)[O-])cn1CCC#N | 20
O=C(CSCc1c(F)cccc1Cl)Nc1ccccc1C(=O)N1CCOCC1 | 17
(list continues)
SMILES | Biofilm kill mix
CC(=O)c1ccc(-c2ccc(C(=O)N3CCN(c4ccc(F)cc4)CC3)o2)cc1 | 5
CCNC(=O)CC1C(=O)N(c2ccc(F)cc2)C(=O)N1Cc1cccs1 (stereo not drawn) | 8
O=C(Nc1ccc2c(c1)OCCO2)C(=S)NCc1ccccc1 | -4
C#CCSc1ncc(S(=O)(=O)c2ccccc2)c(=O)[nH]1 | 14
O=C(c1cc(Cl)ccc1[N+](=O)[O-])n1cnc2ccccc21 | 11
CS(=O)(=O)N1CCc2cc(C(=O)Nc3ccccc3)ccc21 | -3
O=C(O)/C=C/C(=O)NC1CC1 | 17
C=CCNC(=O)O/N=C/c1csc([N+](=O)[O-])c1 | 16
O=c1c(Cc2ccc(F)cc2)c(O)ccn1CCCN1CCOCC1 | 14
CCCN1CCC(NC(=O)CCc2nnc(-c3ccccc3)o2)CC1 | 10
COc1ccc(C(=O)C2CCCN(C(=O)c3cc(C)nc(C)n3)C2)cc1OC (stereo not drawn) | 4
O=C(NCCC1=CCCCC1)c1ccc(Cl)c([N+](=O)[O-])c1 | 19
COc1cc(SC)ccc1C(=O)Nc1nccs1 | 23
O=c1c(CO)cc(CO)cc(CO)c1O | 9
CCOc1ccc(NC(=S)NCC(c2cccnc2)N2CCOCC2)cc1 (stereo not drawn) | 12
O=C(NC(NC(=S)Nc1c(Cl)cccc1Cl)C(Cl)(Cl)Cl)c1cccc([N+](=O)[O-])c1 (stereo not drawn) | 11
OCCC1CN(Cc2cccc3c2OCO3)CCN1C1CCCC1 (stereo not drawn) | 16
O=C1N/C(=N\c2ccccn2)SC1Cc1ccccc1Cl (stereo not drawn) | 14
O=C(NN=C1CCN(Cc2ccccc2)CC1)c1ccccc1O | 16
O=C(CSc1nnc(-c2ccc(F)cc2)c2ccccc12)Nc1ccccc1 | 9
COc1ccc2nc(C)cc(SCC(=O)N/N=C/c3ccc(O)c(O)c3)c2c1 | 9
O=C(NCCCN1CCCC1=O)c1cc2c(s1)CCCCC2 | -2
FC(F)(F)c1cccc(NC(=S)NCC(c2cccnc2)N2CCOCC2)c1 (stereo not drawn) | 8
O=C(CC(c1ccccc1)c1ccccc1)N1CCN(c2ccccn2)CC1 | 18
O=C(CC(Cc1ccccc1)c1ccco1)NCc1ccco1 (stereo not drawn) | 14
O=C(N/N=C/c1cccc([N+](=O)[O-])c1)c1cccc2cc[nH]c12 | -1
CS(=O)(=O)c1ccc(C(=O)N2CCN(Cc3ccccc3)CC2)cc1 | 10
CCCCn1c(NC(=S)Nc2ccccc2)nc2ccccc21 | 16
O=C(NC(=S)Nc1ccc(Cc2ccncc2)cc1)c1ccccc1Cl | 6
CCOC(=O)CC1C(=O)NCCN1S(=O)(=O)c1ccc(C)cc1 (stereo not drawn) | 12
FC(F)Oc1ccc(-c2csc(=Nc3cccnc3)n2CC2CCCO2)cc1 (stereo not drawn) | 10
C/C(=N\N=C1\NC(=O)CS1)c1cccs1 | 11
Cc1ccc(S(=O)(=O)N2CCCCC2)cc1NC(=O)CSc1ncn[nH]1 | 10
Cc1nc2ccccc2n1C(=O)c1ccccc1[N+](=O)[O-] | 15
O=C(Nc1nccs1)c1cn2ccccc2n1 | 12
O=C(CCSc1ccccn1)c1ccccc1 | 12
COC(=O)CC(=O)N1CCN(c2ccc(Cl)c(Cl)c2)CC1 | 12
CCC(C)c1ccc(NC(=O)c2cnn3c(C(F)F)cc(C)nc23)cc1 (stereo not drawn) | -2
CNC(=O)c1sc(-c2cccs2)nc1C | 7
CCOC(=O)N/N=C/C(Cl)=C/c1ccccc1 | 15
CCOc1ccccc1NC(=O)c1cccc(S(=O)(=O)N(Cc2ccccc2)c2ccccc2OC)c1 | -1
CCOC(=O)c1cn(Cc2cccc(Cl)c2)nn1 | 15
O=C(Nc1ccccc1Cl)N(Cc1nc2ccccc2c(=O)[nH]1)Cc1cccs1 | 11
Cc1nnc(NC(=O)c2csc3c2CCC(C)C3)s1 (stereo not drawn) | -5
NC(=O)NC(=O)CC1S/C(=N/N=C/c2ccccc2)NC1=O (stereo not drawn) | 20
Cc1ccc(NC(=S)N=Nc2c(O)n(C)c3ccc(S(=O)(=O)N4CCOCC4)cc23)cc1C | 11
Clc1ccccc1CSc1nncn1NC/C=C/c1ccccc1 | 11
COc1ccc(Cl)cc1C(=O)NNC(=O)c1nc2nc(C)cc(C)n2n1 | 16
Cc1onc(-c2c(F)cccc2Cl)c1C(=O)N1CCN(c2ncc(Br)cn2)CC1 | -2
Cc1ccc(N(CCC(=O)Nc2nnc(C3CC3)s2)S(=O)(=O)c2ccccc2)cc1 | 8
COc1ccc(N(C(=O)Cn2nnc(-c3ccc(Cl)cc3)n2)C(C(=O)NCC2CCCO2)c2ccncc2)cc1 (stereo not drawn) | 14
CCC(=O)Nc1cccc(C(=O)/C=C/c2cccs2)c1 | 14
COc1ccc(-c2ncncc2-c2ccc(Cl)cc2)c(O)c1 | 16
Cc1ccc(NC(=O)Cc2nnc(SCC(=O)Nc3ccccc3)n2C)cc1 | 9
N#C/C(=C/c1ccc(OCc2ccc(C(=O)O)cc2)c(Br)c1)c1cccc(F)c1 | -3
Cc1occc1C(=O)NNC(=S)NCc1ccc(Cl)cc1 | 4
O=C(CC1C(=O)NCCN1CC1CCCCC1)NCc1ccc(Cl)cc1 (stereo not drawn) | 24

Part of the list above, as labelled records.
compound: CCC(=O)Nc1cccc(C(=O)/C=C/c2cccs2)c1
- Biofilm kill mix: 14
compound: COc1ccc(-c2ncncc2-c2ccc(Cl)cc2)c(O)c1
- Biofilm kill mix: 16
compound: Cc1ccc(NC(=O)Cc2nnc(SCC(=O)Nc3ccccc3)n2C)cc1
- Biofilm kill mix: 9

Gathered by group: the entries above with fluorine (17)
SMILES | Biofilm kill mix
N#C/C(=N\Nc1cccc(C(F)(F)F)c1)C(=O)c1ccsc1 | 18
CC(=O)c1cc(-c2ccc(F)cc2)n(CCC(=O)Nc2cccc(C)n2)c1C | 16
OC(COc1ccc(CNCCc2ccc(C(F)(F)F)cc2)cc1)CN1CCCCC1 (stereo not drawn) | 22
CN1CCN(C(=S)c2ccc(OCC(=O)Nc3cccc(C(F)(F)F)c3)cc2)CC1 | 15
COc1ccc(OCC(O)CNC(=O)Nc2ccc(F)cc2)cc1 (stereo not drawn) | 16
Cc1nc(-c2ccc(Cl)cc2)sc1C1(C)CC(c2ccc(OC(F)(F)F)cc2)=NO1 (stereo not drawn) | 19
Cc1ccc(CCSc2ccc(F)cc2)cn1 | 12
O=C(CSCc1c(F)cccc1Cl)Nc1ccccc1C(=O)N1CCOCC1 | 17
CC(=O)c1ccc(-c2ccc(C(=O)N3CCN(c4ccc(F)cc4)CC3)o2)cc1 | 5
CCNC(=O)CC1C(=O)N(c2ccc(F)cc2)C(=O)N1Cc1cccs1 (stereo not drawn) | 8
O=c1c(Cc2ccc(F)cc2)c(O)ccn1CCCN1CCOCC1 | 14
O=C(CSc1nnc(-c2ccc(F)cc2)c2ccccc12)Nc1ccccc1 | 9
FC(F)(F)c1cccc(NC(=S)NCC(c2cccnc2)N2CCOCC2)c1 (stereo not drawn) | 8
FC(F)Oc1ccc(-c2csc(=Nc3cccnc3)n2CC2CCCO2)cc1 (stereo not drawn) | 10
CCC(C)c1ccc(NC(=O)c2cnn3c(C(F)F)cc(C)nc23)cc1 (stereo not drawn) | -2
Cc1onc(-c2c(F)cccc2Cl)c1C(=O)N1CCN(c2ncc(Br)cn2)CC1 | -2
N#C/C(=C/c1ccc(OCc2ccc(C(=O)O)cc2)c(Br)c1)c1cccc(F)c1 | -3
